Screening results as filed in PubChem.
RecA splice inh: blocks M. tuberculosis RecA intein splicing. inhibition, %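 (about 9 µM by stock and volumes)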. AID 2221. cell-free RecA intein splicing, fluorescence. 290,000 compounds, 0.75% hits; in the data active means inhibition above about 30%; inconclusive means no clear call, values can overlap the other calls;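 further: 0% = vehicle wells and 100% = reference inhibitor control wells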
Target sequence (P9WHJ3 whole entry, looked up, canonical isoform): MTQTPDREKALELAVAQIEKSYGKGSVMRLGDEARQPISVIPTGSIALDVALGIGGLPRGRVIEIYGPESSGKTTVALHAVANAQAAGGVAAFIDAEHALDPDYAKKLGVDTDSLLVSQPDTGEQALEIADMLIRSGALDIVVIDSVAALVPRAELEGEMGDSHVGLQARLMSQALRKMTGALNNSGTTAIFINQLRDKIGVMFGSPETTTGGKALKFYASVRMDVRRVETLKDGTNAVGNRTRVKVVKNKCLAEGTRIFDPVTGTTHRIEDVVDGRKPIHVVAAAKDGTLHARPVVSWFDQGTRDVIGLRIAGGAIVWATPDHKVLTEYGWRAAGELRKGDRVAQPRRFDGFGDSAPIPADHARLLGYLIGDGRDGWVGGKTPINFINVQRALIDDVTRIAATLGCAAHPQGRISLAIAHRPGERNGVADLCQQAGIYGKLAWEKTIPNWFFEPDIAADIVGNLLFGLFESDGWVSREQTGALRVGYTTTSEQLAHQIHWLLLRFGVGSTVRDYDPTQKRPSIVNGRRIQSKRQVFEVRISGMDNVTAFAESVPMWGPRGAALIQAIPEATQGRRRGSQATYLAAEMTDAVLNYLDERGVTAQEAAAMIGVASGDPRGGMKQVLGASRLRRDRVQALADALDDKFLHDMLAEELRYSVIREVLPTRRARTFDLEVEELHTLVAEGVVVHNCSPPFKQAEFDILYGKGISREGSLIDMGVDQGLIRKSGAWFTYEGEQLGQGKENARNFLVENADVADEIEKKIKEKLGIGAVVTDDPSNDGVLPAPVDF
Mtb bLac sens: beta-lactam sensitization of Mtb H37Rv | AID 434955 | M. tuberculosis H37Rv growth with meropenem, percent inhibition; hits of this screen are not shown here | inhibition, % at 25 µM | 330,000 compounds, 0.27% hits;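 active means about 74% or more and at least 40 points above the plate without the antibiotic, then above 30% in a dose series; inconclusive means first-round hits that could not be retested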;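 further: growth measured after seven days incubation then overnight dye step; 0% = bacteria only wells and 100% = bacteria with antibiotic; twin plates without the antibiotic show which effects depend on it; some results filed as inactive read as strong as hits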
Mtb growth: M. tuberculosis H37Rv growth inhibitors, H37Rv strain (AID 1626). M. tuberculosis H37Rv growth inhibition; higher % means a stronger effect. inhibition, % at 10 µM; hits with a dose series show IC50 in µM. 220,000 compounds, 0.95% hits;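 active means confirmed in a dose series; inconclusive means inhibition above 80% but not taken into the dose series; inactive means below 80% or under 30% at every dose of the series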;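 further: bacteria incubated seven days before Alamar blue readout; 0% = bacteria only wells and 100% = bacteria with antibiotic wells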
Arbovirus inh: antivirals against arbovirus infection | arbovirus infection cell-based antiviral screen | inhibition, % at 10 µM | 200,000 compounds, 0.37% hits | AID 1251;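 active means inhibition from about 30%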;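 further: bluetongue infection of BSR cells; cell survival read as ATP light after 72 h; 0% = infected wells without compound and 100% = uninfected wells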
YopH PTP inh: YopH (Yersinia) phosphatase inhibition; inhibition, %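 (about 10 µM by stock and volumes)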; AID 898; 140,000 compounds, 0.16% hits; fluorescence Ex485/Em525;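 active means inhibition of 50% or more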;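 further: controls were vehicle for no effect and minimum signal wells for full effect; inactives centre near -20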
Arbovirus inh repeat: also measured in Arbovirus inh; calls as there; inhibition, %; measured here: 10K subset replicate screen; many hits read low in the repeat;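 first of two repeat runs on a subset; 0% = infected and 100% = uninfected wells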
* hit, by the source's call; ? = inconclusive; . = no result given.

SMILES | RecA splice inh | Mtb bLac sens | Mtb growth | Arbovirus inh | YopH PTP inh | others
Cc1cc(=O)nc2c3ccccc3n(CC(=O)NC(C)c3ccc4c(c3)OCCO4)n12 (stereo not given) | -2.8 | 0.8 | . | . | .
CCC(C)Nc1c2c(nc3c(-c4ccccc4)c(C)nn13)CCC2 (stereo not given) | 1.3 | 77.1 | 12.6% | 5.5 | -13.9
Cc1ccc(NC(=O)CSCC(=O)N2CCOCC2)cc1 | 7.0 | -2.2 | -0.9% | 2.0 | -1.9
Cc1nnc(NC(=O)c2ccc(S(=O)(=O)N3CC(C)CC(C)C3)cc2)o1 (stereo not given) | 0.1 | -3.3 | . | . | .
C/C(Cc1ccccc1)=N\NC(=O)CNC(=O)c1ccccc1O | 1.8 | -0.8 | -7.5% | . | .
Cc1cc(C)n2nc(C(=O)OCC(=O)NNC(=O)c3ccc(Cl)cc3)nc2n1 | -1.1 | 1.7 | . | . | .
Cc1ccc(-c2cnn(-c3cccc(C(F)(F)F)c3)c2N)cc1 | 1.0 | -1.9 | 0.8% | 0.0 | -9.3
Cn1cccc1C(NC(=O)c1ccccc1)C(Cl)(Cl)Cl (stereo not given) | 2.0 | -1.8 | . | . | .
COc1ccc(/C=N/NC(=O)c2cccc(NC(=O)c3ccc(F)cc3)c2)c(C(=O)O)c1OC | . | -0.3 | -2.3% | -0.3 | .
Cc1ccc(CNC(=O)c2ccc(N3CCC4(CC3)CC(c3cccc(Br)c3)=NO4)c(NC(=O)c3ccco3)c2)cc1 | -2.1 | -3.7 | . | . | .
CCOc1ccc(N(CC(=O)NCc2cccc(OC)c2)S(=O)(=O)c2c(C)noc2C)cc1 | -0.3 | ? | -0.8% | 2.2 | -0.3
CN1CCN(Cc2cn3cccnc3n2)CC1 | -0.6 | -1.6 | -0.1% | 5.5 | .
O=C(COc1ccc(S(=O)(=O)N2CCCC2)cc1)N1CCN(c2ccccc2F)CC1 | -0.2 | 2.8 | . | . | .
COc1ccc(CN2C(=O)c3cccnc3C2O)cc1 (stereo not given) | 26.4 | -4.7 | -4.0% | -0.8 | -19.1
CCCN(CCC)CCNC(=O)C1c2ccccc2C(=O)N(CCOC)C1c1ccc(F)cc1 (stereo not given) | -0.4 | -5.4 | -2.2% | 0.1 | -2.0
COc1ccc(OCC(O)Cn2c(=N)n(CCN3CCOCC3)c3ccccc32)cc1 (stereo not given) | -0.8 | 0.8 | 3.1% | 4.6 | -21.3
COc1ccc(NC(=O)CCNS(=O)(=O)c2cccc3nonc23)cc1 | -0.7 | 28.0 | . | . | .
COC(=O)c1sccc1NC(=O)C1C2C=CC(O2)C1C(=O)O (stereo not given) | 2.3 | -6.4 | -4.5% | -1.3 | -15.3
C#CCNc1nc(C)nc2c1nnn2Cc1ccccc1F | 0.1 | -6.0 | -7.0% | 6.6 | -28.6
CSc1nc2ccccc2n1Cc1c(Cl)cccc1Cl | 20.6 | 7.0 | -4.0% | -13.9 | -19.0
CCOc1ccc2[nH]cc(S(=O)(=O)c3ccc(Cl)cc3)c(=O)c2c1 | -3.3 | -0.8 | 4.0% | 5.4 | .
Cc1ccc(C)c(CSc2nnc(C)c(=O)[nH]2)c1 | . | -2.4 | -1.0% | 8.7 | .
CCCC(NC(=O)CCc1c(C)c2cc3c(-c4ccccc4)coc3cc2oc1=O)C(=O)O (stereo not given) | -1.5 | -6.6 | . | . | .
CC(C)NC(=O)C1CCN(C(=O)C(C(=O)c2ccccc2)n2cc(Cl)ccc2=O)CC1 (stereo not given) | . | 6.4 | -3.2% | 3.3 | -21.4
CS(=O)(=O)N1CCN=C1SCc1ccc(F)cc1 | -2.0 | 5.5 | . | . | .
Cc1cccc(C(=O)O/N=C(\N)CS(=O)(=O)c2ccccc2)c1 | -0.3 | -8.0 | . | . | .
CN1CCN(C(=O)C2CCC(CNS(=O)(=O)c3cccc4cccnc34)CC2)CC1 (stereo not given) | . | 3.4 | -11.5% | -6.2 | -42.8 | Arbovirus inh repeat=-1.9
Cc1c(NC(=O)CSC(=S)N2CCCC2)c(=O)n(-c2ccccc2)n1C | 2.0 | -9.2 | . | . | .
CCOC(=O)c1sc(NC(=O)CN(CC)CC)c(C(=O)OCC)c1C | 4.5 | -1.0 | 3.4% | 5.8 | -20.6
Cc1cc(C)n(CCNS(=O)(=O)c2ccc(C)c(C)c2)n1 | -0.3 | -0.6 | . | . | .
Cc1ccc(S(=O)(=O)/C(C#N)=C/c2c(N3CCN(C)CC3)nc3ccccn3c2=O)cc1 | -17.4 | 5.8 | -3.6% | -8.7 | -20.3
O/N=C1/CCCCc2sccc21 | -1.0 | 2.7 | -4.5% | -0.7 | -43.8
CC1CCCCN1C(=O)c1cc2c(=O)n3ccccc3nc2s1 (stereo not given) | -1.6 | -1.2 | . | . | .
CCCN(CCC)S(=O)(=O)c1ccc(Cl)c([N+](=O)[O-])c1 | . | -7.9 | 9.1% | -26.5 | .
O=C(N/N=C/c1sc(=O)[nH]c1-[n+]1ccccc1)c1ccccc1[O-] | 0.2 | -8.0 | 13.8% | . | .
C/C(=N\NC(=O)c1ccc(O)cc1)c1cccc(NC(=O)c2ccc(Cl)cc2)c1 | 2.7 | 6.5 | . | . | .
CCOc1ccc(Nc2nc(Cc3nnc(SCC(=O)N(CC)CC)n3C)cs2)cc1 | -0.6 | -5.1 | -7.3% | 3.4 | -9.5
COc1ccc2cc(C(=O)N3CCN(C)CC3)[nH]c2c1 | -1.5 | -0.8 | . | . | .
COc1ccc(-n2nnc3c(SCC(=O)NCc4ccco4)ncnc32)cc1 | -6.4 | 40.2 | 11.0% | 10.3 | -54.6
Cc1nc2ccccc2c(=O)n1CC(=O)N1CCOCC1 | -0.2 | 5.0 | -5.7% | 5.4 | -40.7
O=C(NCCN1CCN(Cc2ccccc2Cl)CC1)Nc1ccccc1 | 0.9 | -3.2 | -2.2% | 21.4 | -3.7
CCOC(=O)C1=NN(C(C)=O)C2C(=O)N(CC)C(=O)C12 (stereo not given) | -1.3 | 0.4 | -2.7% | . | .
Cc1ccc(C(=O)NN=C2CCCCCC2)s1 | -0.3 | 7.6 | . | . | .
COc1ccc(N2CCN(c3nc(NCCO)nc(N4CCOCC4)n3)CC2)cc1 | -2.5 | 4.3 | -8.7% | 14.6 | -9.6
COc1cc(OC)cc(C(=O)NCC(=O)OCC(=O)c2ccc3c(c2)-c2ccccc2C3)c1 | 0.0 | 1.4 | 1.6% | -2.7 | -51.8
c1ccc2c(c1)[nH]c1ccccc12 | 3.0 | -5.2 | 0.0% | . | .
CCOc1ccc(N(CC(=O)NCC2CCCO2)S(=O)(=O)c2ccc(OC)c(OC)c2)cc1 (stereo not given) | 2.1 | -10.5 | -4.1% | 0.2 | -17.8
O=C(CCl)N(c1ccc(Cl)cc1)c1c[nH]c2ccccc12 | 40.4* | 99.4 | 75.3% | -23.2 | -20.3
FC(F)(F)c1cnc(Sc2nnc(-c3cccs3)n2CC2CCCO2)c(Cl)c1 (stereo not given) | -0.8 | 3.6 | -4.1% | 0.9 | -4.3
Cn1cc(Cl)c(-c2n[nH]c(=S)n2-c2ccc(F)cc2)n1 | -0.6 | 0.6 | -7.7% | -2.5 | -20.9
Carrying on.
SMILES | RecA splice inh | Mtb bLac sens | Mtb growth | Arbovirus inh | YopH PTP inh | others
C=CCc1cc(/C=N\NC(=O)CSc2nnc(CCCc3ccc(OC)c(C)c3)o2)cc(OC)c1O | 0.0 | 0.5 | 9.7% | 2.8 | -3.4
Cc1cc(Nc2ccccc2)n(-c2ccc(Br)cc2)n1 | 14.6 | 18.6 | -7.5% | -11.6 | -14.5
Cc1ccc(C(C(=O)NCCc2ccccc2)N(C(=O)c2csnn2)C2CC2)o1 (stereo not given) | -0.7 | 2.7 | 1.2% | 5.4 | -43.3
COc1cccc(NC(=S)N2CCCC2c2ccc(OC)c(OC)c2)c1 (stereo not given) | 1.0 | 0.1 | -1.2% | 2.0 | .
Clc1ccc(-c2cn(-c3ccc(Cl)cc3)c3[n+]2CCCCC3)cc1 | -1.1 | -7.4 | -0.8% | . | .
CCOc1ccc(S(=O)(=O)N2CCCC(C(=O)NCc3ccncc3)C2)cc1C (stereo not given) | 0.8 | -7.6 | . | . | .
O=C(COc1ccc(-c2ccccc2)cc1)NNC(=O)Nc1ccc(F)cc1F | 0.0 | -5.3 | . | . | .
CCOC(=O)Cc1csc(NC(=O)NC2(C(F)(F)F)Oc3ccc(Cl)cc3O2)n1 (stereo not given) | 1.6 | 94.7 | 3.1% | 1.2 | -17.1
COC(=O)c1ccc(CSc2nnc(-c3ccc4c(c3)OCO4)n2-c2ccccc2)o1 | -2.7 | -0.3 | 8.4% | -9.6 | -16.7
C=CCN1C(=O)/C(=C/c2ccc(N(C)C)cc2)S/C1=N\c1nnc(CC)s1 | -5.6 | . | . | -23.5 | -16.1
CCOC(=O)CCCc1sc(N)nc1-c1[nH]c(=O)[nH]c1C | -2.0 | -4.5 | 2.4% | 5.9 | -7.5
CCOC(=O)c1ccc(-n2cc(C(=O)c3cccnc3)nn2)cc1 | 1.5 | -3.7 | . | . | .
Oc1ccccc1/C=N/n1cnnc1 | -4.4 | -3.7 | -8.1% | 3.9 | -9.9
CCC1(CC)C(=O)C2=C3C1[C@H](C(=O)OC)C=C(C(=O)OC)C[C@H]3[C@H]1C(=O)N(Cc3ccccc3)C(=O)[C@H]1[C@H]2C (stereo not given in full) | 1.8 | -5.5 | 12.5% | . | .
COc1cccc(/C=N/Nc2nn3cnnc3c3ccccc23)c1 | -0.4 | 18.2 | -4.6% | -6.8 | -7.8
COc1cccc(CC2(CO)CCCN(Cc3ccccc3Cl)C2)c1 (stereo not given) | 1.8 | 1.2 | . | . | .
Cc1ccc(S(=O)(=O)N2C(=O)/C(=C3\SC(=S)NC3=O)c3ccccc32)cc1 | -2.7 | 2.0 | -6.5% | . | .
COc1ccc(-n2c(SCC#N)nc3ccccc3c2=O)cc1 | -1.6 | -3.0 | -3.4% | -3.7 | -9.8
Cc1csc2nc(CNS(=O)(=O)c3cccnc3)cn12 | 0.5 | 2.7 | -0.1% | . | -33.8
CN(Cc1c(F)cccc1Cl)C(=O)c1ccc(NC(=O)CC2SC(N3CCCC3)=NC2=O)cc1 (stereo not given) | 3.2 | -6.5 | . | . | .
CCOc1ccc(N2C(=O)CC(N3CCN(c4ccc([N+](=O)[O-])cc4)CC3)C2=O)cc1 (stereo not given) | 1.0 | 3.2 | . | . | .
COc1ccc(NC(NC(=O)c2ccc(OC)cc2)C(Cl)(Cl)Cl)cc1 (stereo not given) | 4.5 | 94.9 | . | 8.0 | -25.0

Only part of the results is shown; rates above refer to the full screens.
